PrP 5UTR inh – suppresses PrP 5' UTR mRNA reporter expression; cell-based PrP 5' UTR mRNA reporter, plate reader; inhibition, % (no concentration beside the values); actives 0.35% (n = 340,000);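 active means every replicate at 50% or more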;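 further: 0 = median of the neutral control wells; tested in H4 reporter cells; numbers are from one replicate; inactives centre near -14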
Sa RN4220 lethal – S. aureus RN4220 growth inhibition; inhibition, % (no concentration beside the values); AID 1259311; OD600, 16 h; actives 0.33% (n = 330,000);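 active means z-score of -3 or lower and OD600 up to 0.18 on both plates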;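 further: plate controls were untreated cells for no effect and reference antibiotic for full effect; stock transfer was 100 nL into about 80 µL; one replicate is shown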
ugtP null kill – compounds lethal to S. aureus RN4220 ugtP deletion mutant; OD600 growth, 16 h; some inactives read as strong as hits; growth inhibition, % (test concentration not listed); actives 0.54% (n = 330,000);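 active means z-score under -3 and OD600 up to 0.15 on both plates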;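 further: plate controls were untreated wells for no effect and antibiotic for full effect; wells of about 80 µL received 100 nL stock; the first replicate is given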
Bead autofluor – counter-screen for toxin protease inhibitors: compound fluorescence | compound autofluorescence counterscreen, microsphere flow cytometry; hits give high values | fluorescence intensity (concentration not given with the values) | actives 3.1% (n = 360,000) | AID 624483;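 active means at least 3 SD above the mean of all compounds, about 16000 in these data; inconclusive means too few beads counted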;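 further: 100 nL of 1 mM stock went into each well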
BJeLR viability – kills HRASV12-expressing BJeLR cells; BJeLR (HRASV12) viability, CellTiter-Glo ATP luminescence, 48 h; reference of the scale not given here; inhibition, % (test concentration not listed); actives 0.17% (n = 300,000);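 active means replicate mean above 50%; inconclusive means above 50% but judged a plate artefact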;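 further: 50 nL library stock added to about 25 µL; numbers are from one replicate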
Mtb hypoxia inh – Mtb hypoxia fluorescent reporter inhibition. M. tuberculosis hypoxia-regulated fluorescent reporter, fluorescence. fluorescence inhibition, % (no concentration beside the values). actives 0.1% (n = 300,000);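 active means 35 to 45% if threefold the growth effect, above 45% if 1.5-fold the growth effect; inactive means the rest, general growth blockers included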;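 further: wells of about 50 µL received 100 nL stock; 0% = vehicle wells and 100% = reference inhibitor wells; whole bacteria with a GFP reporter of the hypoxia response; strong numbers were not always called active; many hits fall short of the cut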
Mtb hypoxia inh growth – also measured in Mtb hypoxia inh; calls as there; growth inhibition, %; measured here: M. tuberculosis growth (absorbance);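 0% = vehicle and 100% = reference antibiotic; read after six days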
Numbers without * were called inactive; u = inconclusive; x = not tested or not shown.

SMILES	PrP 5UTR inh	Sa RN4220 lethal	ugtP null kill	Bead autofluor	BJeLR viability	Mtb hypoxia inh	Mtb hypoxia inh growth
CCC(C)CCN1C(Nc2ccccc2)=NC[C@@H]1C (stereo partly specified)	-18	x	x	3178	2	x	x
O=C(CSc1ncn[nH]1)NNC(=O)c1ccccc1	-5	1.2	4	6377	-5	-2	-3
COc1ccc(OC)c(C(=O)CSc2nc3cccnc3n2C)c1	-2	1.3	3	3585	5	x	x
Nc1nc(-c2cccnc2)nn1C(=O)CCc1ccccc1	-17	4.6	0	8911	-2	18	7
COc1ccc(C(=O)OCc2nnc(-c3ccccc3)o2)cc1S(=O)(=O)N1CCOCC1	-19	2.2	0	6370	3	-3	2
O=C(OCC(=O)N1CCCc2ccccc21)c1cc(Br)ccc1O	-1	-1.8	2	6278	3	-5	9
CCOc1cc(C=NNC(=O)c2ccc(CN3CCOCC3)cc2)ccc1OCc1ccccc1	x	6.3	-3	x	x	3	-2
COc1ccccc1NC(=O)C1=C(C)Nc2nnnn2C1c1cccc(Br)c1 (stereo unspecified)	-19	1.3	-12	20413*	-3	7	11
Cc1ccc(-c2cc(C(=O)NCCCN3CCCC3)c3ccccc3n2)cc1C	-13	x	x	7083	10	x	x
COc1ccc(C(C)NC(=O)Cc2cccs2)cc1OC (stereo unspecified)	-13	1.4	-1	5381	0	12	-11
O=C(NC(=S)Nc1cc([N+](=O)[O-])ccc1O)C1CC1	-12	2.4	-1	6680	-16	6	0
COc1ccc(-c2nnc(SCC(=O)NCc3cccs3)n2CC(C)C)cc1	-14	3.2	3	3729	-4	x	x
COc1ccc(Oc2c(C)oc3cc(OC(=O)N(C)C)ccc3c2=O)cc1	-12	-3.3	5	3464	-10	-1	0
COc1ccc(N(C(=O)c2cnccn2)C(C(=O)NC2CCCCC2)c2ccc(O)cc2)cc1 (stereo unspecified)	-51	6.4	5	4300	4	10	3
CC1=C(C(=O)Nc2ccccc2)S(=O)(=O)CCO1	-6	2.2	3	3549	3	1	4
O=C(CN1CCN(Cc2ccc3c(c2)OCO3)CC1)c1c[nH]c2ccccc12	-22	2.6	1	3004	3	x	x
COc1cc(C(O)C(=O)O)ccc1O (stereo unspecified)	6	5.7	0	5485	x	9	-1
COc1ccc(NC(=O)CSc2nccn2Cc2ccc(F)cc2)cc1	-9	-2.2	10	4613	-4	12	5
CC(C)(C)c1ccc(C(=O)N2CCC(C(=O)c3ccccc3)CC2)cc1	3	1.4	15	4001	-7	10	9
CCOC(=O)C1C2c3ccccc3O[C@@]1(C)N=C1SCC(=O)N12 (stereo partly specified)	-9	11	12	6938	0	6	1
COc1cccc(C(=O)N2N=C(c3ccccc3)CC2(O)C(F)(F)F)c1 (stereo unspecified)	-20	26	-6	2532	4	5	3
COc1ccc(CN(C(=O)CNC(=O)c2ccco2)C(C(=O)NCC2CCCO2)c2ccc(OC)c(OC)c2)cc1 (stereo unspecified)	-18	0.4	1	3500	3	6	6
COc1ccc(CCNC(=O)c2ccc(-c3ccc([N+](=O)[O-])cc3)o2)cc1OC	-19	8.7	6	2140	-4	14	10
CCC(=O)NC(=S)Nc1ccc(NC(=O)c2ccc([N+](=O)[O-])cc2)cc1	-8	x	x	2356	-3	x	x
CCn1c(=S)sc2c(=O)n(CC(=O)Nc3cccc(OC)c3)c(C)nc21	-7	1.6	10	4989	3	-2	9
CCCOC(=O)c1ccc(-c2c(C)noc2-c2ccc(OC)cc2O)o1	-10	-9.3	-8	4134	5	x	x
Cc1c2cnn(CC(=O)N3CCC4(CC3)OCCO4)c(=O)c2c(C)n1Cc1ccccc1Cl	-13	4.5	4	5527	13	-1	-5
Cc1ccc(NC(=O)CN2C(=O)C(C)Oc3ccccc32)nc1 (stereo unspecified)	-10	3.6	2	11123	-8	3	9
CCOC(=O)c1ccc(-c2ccc(/C=N/NC(=O)CN(c3ccccc3Cl)S(C)(=O)=O)o2)cc1	-44	x	x	2036	-7	x	x
Cc1sc2nc(SCc3ccccc3)n(Cc3ccco3)c(=O)c2c1C	-5	-1.8	42	15662	2	6	5
Fc1cccc(Cc2noc(CN3CCCCC3c3ccccn3)n2)c1 (stereo unspecified)	-4	2.3	7	4804	1	9	6
COCCN(C(=O)COC(=O)c1ccc(C)s1)c1c(N)n(Cc2ccccc2)c(=O)[nH]c1=O	-14	1.9	4	7293	-1	1	0
CC(C)(C)C(=O)NC1(C(F)(F)F)C(=O)Nc2c1c(=O)[nH]c(=O)n2Cc1ccco1 (stereo unspecified)	1	0.3	3	4514	-4	x	x
COc1ccc(C=NOCC(=O)Nc2nc3ccccc3s2)cc1	x	1.0	-6	x	x	-1	-1
COc1ccc(/C(C)=N/N2C(C)CCCC2C)c(OC)c1 (stereo unspecified)	-14	x	x	3859	2	x	x
CC1(C)Cc2cccc(OCC(O)CNCc3ccccn3)c2O1 (stereo unspecified)	-11	-9.1	-3	2426	-9	16	9
O=C(Nc1ccccc1C(=O)O)c1cc(S(=O)(=O)N2CCOCC2)c(Br)s1	3	6.0	1	4214	6	5	2
N#CCSc1nc2ccc(N3CCOCC3)cc2c(=O)n1CCc1ccccc1	-10	9.0	-4	8948	3	11	2
CCC(CC)c1nn2c(N)c(/C=C3\C(C)=Nc4ccccc43)c(=O)nc2s1	x	4.5	14	3915	-3	11	11
O=C(COC(=O)C12CC3CC(CC(Cl)(C3)C1)C2)Nc1ccc2[nH]c(=O)[nH]c2c1	-9	7.3	0	x	x	2	1
Nc1ccccc1Sc1ccc(C(F)(F)F)cc1[N+](=O)[O-]	-3	24	7	x	-2	6	-1
COc1cc(C2Nc3ccccc3C(=O)N2c2ccccc2OC)ccc1O (stereo unspecified)	-9	-2.4	-4	4474	3	x	x
O=C(CCCOc1ccccc1)NN1C(=O)NC2(CCCCC2)C1=O	-14	1.5	4	5422	-7	1	7
CCCc1nnc(SCC(=O)N2C(C)CCCC2C)n1CC (stereo unspecified)	1	0.9	2	4670	4	8	-2
COc1ccc(NC(C)=O)cc1NC(=O)c1ccc(Cl)cc1	-13	4.0	4	4337	0	-6	-1
COc1cc(Cn2c(N)c(C#N)c3nc4ccccc4nc32)cc(OC)c1	0	2.5	5	6656	-4	4	-2
Cc1ccc(S(=O)(=O)N2CCC(C(=O)C3C(=O)CCCC3=O)CC2)cc1	-53	12	15	4707	0	9	-1
CCOc1cc(/C=C2\CCn3c2nc2cc(Cl)ccc2c3=O)ccc1O	-34	3.3	13	3449	-1	14	4
COc1ccc(CCNC(=O)CSc2ccccn2)cc1OC	-47	3.5	8	4330	-8	5	8
COc1ccc(OC)c(-n2c(O)c(/C=C3\C=Nc4ccccc43)c(=O)[nH]c2=O)c1	-23	x	x	3837	8	x	x
COc1ccc(OCc2cc(C(=O)N3CCCC(OC)C3)no2)c2ccccc12 (stereo unspecified)	-47	x	x	5638	-1	x	x
CCOC(CNC(=O)CN1C(=O)COc2ccc(S(=O)(=O)N3CCOCC3)cc21)OCC	-3	1.5	-1	5636	-2	-1	3
CCN(CC(=O)NCc1cccs1)C(=O)c1ccc([N+](=O)[O-])o1	-1	10.0	2	u	8	7	-1
CC(C)CC1(C)NC(=O)N(CC(=O)Nc2ccc(F)c(F)c2F)C1=O (stereo unspecified)	-16	2.0	0	4227	x	6	5
CC(C)Oc1ccc(CCNC(=O)C2CCC(=O)N(Cc3cccc(F)c3)C2)cc1 (stereo unspecified)	-20	-1.7	-3	6405	1	-4	10
COc1cc(OC)cc(C(=O)OC(C)C(=O)NC2CCCc3ccccc32)c1 (stereo unspecified)	-8	18	3	7998	x	10	3
O=C(CCNC(=O)c1ccccc1Cl)NN=Cc1ccc(O)cc1	x	0.6	11	x	x	8	12
O=C(NCCc1ccccc1)C1CCN(Cc2cccc3ccccc23)CC1	-11	2.4	15	4417	-4	1	2
Cc1ccc(SCC(=O)Nc2cc([N+](=O)[O-])ccc2O)cc1	-9	71	62	4120	3	10	4
Cc1cc(C)n(-c2nc3sc4c(c3c3nnc(SCC(N)=O)n23)CC(C)(C)OC4)n1	9	6.3	-2	3618	7	x	x
(continued)
SMILES	PrP 5UTR inh	Sa RN4220 lethal	ugtP null kill	Bead autofluor	BJeLR viability	Mtb hypoxia inh	Mtb hypoxia inh growth
Cc1ccc(C2=NOC3(CC(=O)N(c4ccc(C)cc4)C3=O)C2)cc1 (stereo unspecified)	-10	3.6	7	u	-8	2	7
CC(Sc1nncs1)C(=O)NC1CCCCC1C (stereo unspecified)	-12	2.1	5	5712	2	4	3
COc1ccc(C(C)=NNC(=O)CNC(=O)/C=C\c2ccccc2OC)c(OC)c1	x	1.3	2	x	x	8	-2
COc1ccc(Nc2ncnc3sc(C)cc23)cc1	-21	-1.2	-12	5627	-14	-22	3
CSc1ccccc1NC(=O)CN(C)C(=O)COc1ncnc2ccccc12	-22	2.9	7	4997	x	4	6
Cc1ccc(-c2nc(SCC(=O)c3c(N)n(C4CC4)c(=O)[nH]c3=O)n[nH]2)cc1	6	-3.6	1	6219	x	-2	-11
O=C(Cn1cncn1)N/N=C/c1ccncc1	-13	x	x	3154	2	x	x
Cc1ccc(NC(=S)N/N=C2\CC3CC=CC23)c(C)c1 (stereo unspecified)	-29	x	x	3211	13	x	x
COc1ccc(CCN2C(=O)CCC2(C)C(=O)NCc2cccnc2)cc1OC (stereo unspecified)	-10	-4.5	-2	8447	1	-3	-6
COC(=O)c1ccccc1NC(=O)CNC(=O)c1ccc(OC)c(OC)c1	2	4.4	5	4364	-8	18	1
O=[N+]([O-])c1cccnc1Oc1ccccc1F	-5	5.8	8	4643	1	16	9
CCOC(=O)C(C)N1C(=O)S/C(=C/c2cc(C)n(-c3ccccn3)c2C)C1=O (stereo unspecified)	-98	-2.3	-5	3149	5	x	x
COc1cc2c(c(OC)c1OC)C(c1ccc3c(c1)OCO3)CC(=O)O2 (stereo unspecified)	-22	4.9	7	3094	x	0	6
O=C(O)c1cccc(NC2=C(n3nnc4ccccc43)C(=O)c3ccccc3C2=O)c1	-36	5.4	2	4445	18	14	14
COCCOC(=O)/C(=C/c1ccc(OC(=O)c2ccccc2)cc1)C(C)=O	-3	7.5	8	2397	-13	6	9

Entries of single compounds, quoted from the list. Order of screens: PrP 5UTR inh	Sa RN4220 lethal	ugtP null kill	Bead autofluor	BJeLR viability	Mtb hypoxia inh	Mtb hypoxia inh growth
COCCN(C(=O)COC(=O)c1ccc(C)s1)c1c(N)n(Cc2ccccc2)c(=O)[nH]c1=O reads -14	1.9	4	7293	-1	1	0
CCn1c(=S)sc2c(=O)n(CC(=O)Nc3cccc(OC)c3)c(C)nc21 reads -7	1.6	10	4989	3	-2	9
COc1ccc(C(C)NC(=O)Cc2cccs2)cc1OC (stereo unspecified) reads -13	1.4	-1	5381	0	12	-11

Remaining list, next part:
SMILES	PrP 5UTR inh	Sa RN4220 lethal	ugtP null kill	Bead autofluor	BJeLR viability	Mtb hypoxia inh	Mtb hypoxia inh growth
CN(C)CCCN(CCCNC(=O)/C=N/O)Cc1ccccc1	-14	x	x	2472	1	x	x
CC(C)c1ccc(C(=O)CC2(O)C(=O)N(CN3CCOCC3)c3ccccc32)cc1 (stereo unspecified)	-29	2.4	-5	2920	-1	3	-1
Cc1cc(C)c(NC(=S)NC(CO)(CO)CO)c(C)c1	-18	1.0	2	3145	-5	-1	-9
CC(C)(C)n1nnnc1C(c1cccnc1)N1CCN(C(=O)c2ccco2)CC1 (stereo unspecified)	-29	-1.9	-3	8710	-4	1	-4
COC(=O)/C=C(\C)NC(=O)c1ccccc1Cl	x	-0.2	2	8158	1	13	10
O=C(NCCCn1ccnc1)c1ccc(Cl)cc1	-3	x	x	3695	-2	x	x
CC(=O)c1ccc(N2CCN(S(=O)(=O)c3cc4[nH]c(=O)c(=O)[nH]c4cc3C)CC2)cc1	7	3.6	-5	5124	-4	x	x
CCOc1ccc2nc(NC(=O)C3CCCN(S(=O)(=O)c4c(C)noc4C)C3)sc2c1 (stereo unspecified)	-10	0.2	5	6221	x	x	x
Nc1ccc(N2CCN(c3cccc(Cl)c3)CC2)cc1	-20	-7.4	-11	1708	10	3	10
Fc1cc(Br)cc(F)c1NC(=S)N1CCOCC1	x	6.7	15	4070	-8	15	7

For convenience, two of the compounds above.
SMILES	PrP 5UTR inh	Sa RN4220 lethal	ugtP null kill	Bead autofluor	BJeLR viability	Mtb hypoxia inh	Mtb hypoxia inh growth
CN(C)CCCN(CCCNC(=O)/C=N/O)Cc1ccccc1	-14	x	x	2472	1	x	x
CC(C)c1ccc(C(=O)CC2(O)C(=O)N(CN3CCOCC3)c3ccccc32)cc1 (stereo unspecified)	-29	2.4	-5	2920	-1	3	-1
